# Assay outcomes: PubChem, Broad Institute
# A1 apoptosis 2: blocks A1, raising caspase activity; MEF A1-2A-BIM cells, caspase-Glo luminescence, 3 h; percent of clofoctol response, DMSO zero; caspase activation, % (concentration not given with the values); 24,000 tested, under 10 active; in the data active = caspase activation above about 5.9%;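 also: wells of about 30 µL received 50 nL stock; the first replicate is given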
#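 Evaluation: Caspase-3/7 activity from luminescence increase | Assay system: A1-2A-BIM mouse embryonic fibroblasts | Quantity: 2500 MEF cells/well | Medium: RPMI-1640 plus 10% FBS | Detection: Caspase-Glo 3/7 luminescence, 1 h at room temperature | Dosing: 50 nL compound per well, pinned | Timing: Cells settled overnight, compound exposure 3 h at 37 °C, 5% CO2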
# An asterisk follows results filed as active.
SMILES,A1 apoptosis 2
Cc1noc(C)c1NC(=O)Nc1ccc2c(c1)CC(=O)N([C@@H](C)CO)C[C@H](C)[C@H](CN(C)Cc1ccc(C(F)(F)F)cc1)O2,-0.1
Cc1ccc(S(=O)(=O)N(C)C[C@H]2OCCCC[C@@H](C)Oc3ccc(NS(=O)(=O)c4ccc(F)cc4)cc3C(=O)N([C@H](C)CO)C[C@H]2C)cc1,-1.4
C[C@H](CO)N1C[C@H](C)[C@@H](CN(C)S(=O)(=O)c2ccccc2)Oc2ccc(NS(C)(=O)=O)cc2CC1=O,-0.2
CNC[C@@H]1Oc2c(NS(=O)(=O)c3ccc(Cl)cc3)cccc2C(=O)N([C@H](C)CO)C[C@@H]1C,0.3
C[C@@H]1CN([C@@H](C)CO)C(=O)c2cc(NS(=O)(=O)c3cccs3)ccc2O[C@@H](C)CCCCO[C@H]1CN(C)C(=O)CCC(F)(F)F,-0.3
C[C@@H]1CN([C@H](C)CO)C(=O)c2cc(NS(=O)(=O)c3ccccc3)ccc2O[C@H]1CN(C)C(=O)Nc1cccc2ccccc12,-0.5
O=C(O)CCCCCCC(=O)N/N=C/c1ccc(N(c2ccccc2)c2ccccc2)cc1,0.3
CC(C)NC(=O)Nc1ccc2c(c1)C(=O)N([C@@H](C)CO)C[C@H](C)[C@H](CN(C)Cc1ccc(C(=O)O)cc1)OCCCC[C@H](C)O2,-0.9
C[C@H](CO)N1C[C@H](C)[C@H](CN(C)C(=O)Nc2cccc(Oc3ccccn3)c2)OCc2cn(nn2)CCCC1=O,-0.2
Cc1ccc(S(=O)(=O)Nc2ccc3c(c2)C(=O)N([C@H](C)CO)C[C@@H](C)[C@H](CN(C)Cc2ccncc2)O3)cc1,0.5
C[C@@H]1CN([C@H](C)CO)C(=O)c2cccc(NS(=O)(=O)c3cccs3)c2O[C@H]1CN(C)S(=O)(=O)c1ccc(F)cc1,0.1
CC(C)NC(=O)N(C)C[C@@H]1Oc2ccc(NC(=O)Nc3ccc4c(c3)OCO4)cc2CC(=O)N([C@H](C)CO)C[C@H]1C,-0.1
O=C(NCc1ccccc1)C1=C[C@@H](C2CCCCC2)C[C@@H](OCc2ccc(CO)cc2)O1,1.0
CNC[C@@H]1Oc2ccc(NC(=O)Nc3ccc(F)cc3)cc2C(=O)N([C@@H](C)CO)C[C@@H]1C,-0.8
CC(C)NC(=O)Nc1ccc2c(c1)C(=O)N([C@H](C)CO)C[C@@H](C)[C@H](CN(C)CC1CC1)OCCCC[C@H](C)O2,0.6
COc1ccc(NC(=O)N(C)C[C@@H]2Oc3ccc(NC(=O)Cc4ccccc4)cc3C(=O)N([C@@H](C)CO)C[C@@H]2C)cc1,-0.6
C[C@@H]1CN([C@@H](C)CO)C(=O)c2cc(NC(=O)Nc3ccc(F)cc3)ccc2O[C@@H](C)CCCCO[C@H]1CN(C)Cc1ccc(C(F)(F)F)cc1,0.7
C=C/C=C/[C@@H]1C(=C)CN([C@@H](Cc2ccc(N=[N+]=[N-])cc2)C(=O)OC)[C@H]1[C@@H](O)Cc1ccccc1,2.0
C[C@@H]1CN([C@H](C)CO)C(=O)c2cc(NS(=O)(=O)c3ccc(Cl)cc3)ccc2O[C@H]1CN(C)S(=O)(=O)c1cn(C)cn1,-0.2
COc1ccc(S(=O)(=O)N(C)C[C@@H]2Oc3ccc(NC(=O)C4CC4)cc3C(=O)N([C@H](C)CO)C[C@@H]2C)cc1,0.0
C[C@@H]1CN([C@@H](C)CO)C(=O)Cc2cc(NC(=O)Cc3ccccc3)ccc2O[C@H]1CN(C)Cc1ccc(C(=O)Nc2ccccc2N)cc1,0.0
COc1ccc(NC(=O)Nc2ccc3c(c2)C(=O)N([C@@H](C)CO)C[C@@H](C)[C@H](CN(C)Cc2ccc(Cl)c(Cl)c2)O3)cc1,-0.8
C[C@@H]1CN([C@@H](C)CO)C(=O)CCCn2nncc2CO[C@H]1CN(C)S(=O)(=O)c1cccs1,-0.4
C[C@H](CO)N1C[C@H](C)[C@H](CN(C)CC2CC2)Oc2ccc(NS(=O)(=O)c3ccc(F)cc3)cc2C1=O,0.9
CNC[C@@H]1Oc2ccc(NC(=O)Nc3cccc4ccccc34)cc2CC(=O)N([C@@H](C)CO)C[C@H]1C,1.8
C[C@@H]1CN([C@H](C)CO)C(=O)c2cc(NS(=O)(=O)c3cccs3)ccc2O[C@@H](C)CCCCO[C@@H]1CN(C)C(=O)c1ccccc1,-1.1
C=CCNC(=O)[C@H]1[C@@H]2C(=O)O[C@@H](c3ccccc3)[C@@H](c3ccccc3)N2[C@@H](c2ccccc2OCCO)[C@]12C(=O)Nc1ccc(C#CC3=CCCCC3)cc12,-0.9
C[C@@H]1CN([C@H](C)CO)C(=O)c2cccc(NC(=O)Nc3ccc(F)cc3)c2O[C@H]1CN(C)C(=O)Nc1cccc2ccccc12,-1.2
C[C@@H]1CN([C@@H](C)CO)C(=O)c2cc(NC(=O)Cc3cn(C)c4ccccc34)ccc2O[C@@H]1CN(C)C(=O)Nc1cccc2ccccc12,-0.8
CNC[C@@H]1OCCCC[C@H](C)Oc2ccc(NS(=O)(=O)c3ccc(C)cc3)cc2C(=O)N([C@@H](C)CO)C[C@@H]1C,-0.8
COc1cccc(CN(C)C[C@@H]2OCc3cnnn3CCCC(=O)N([C@H](C)CO)C[C@H]2C)c1,-1.1
C[C@H](CO)N1C[C@H](C)[C@H](CN(C)C(=O)Nc2ccccc2)Oc2ncc(Br)cc2C1=O,0.1
C[C@H](CO)N1C[C@H](C)[C@H](CN(C)C(=O)Nc2cccc3ccccc23)Oc2ncc(-c3cccc(F)c3)cc2C1=O,0.1
COc1ccc(S(=O)(=O)N(C)C[C@H]2Oc3ccc(NC(=O)Nc4ccc(F)cc4)cc3CC(=O)N([C@H](C)CO)C[C@@H]2C)cc1,1.6
C[C@@H]1CN([C@H](C)CO)C(=O)c2cc(NC(=O)c3ccncc3)ccc2O[C@H]1CN(C)C(=O)Nc1ccc(F)cc1,-1.1
C[C@@H]1CN([C@H](C)CO)C(=O)c2cc(NC(=O)Nc3ccc4c(c3)OCO4)ccc2O[C@@H]1CN(C)CC1CCCCC1,0.6
C[C@@H]1CN([C@H](C)CO)C(=O)CCCn2cc(nn2)CO[C@@H]1CN(C)C(=O)C1CC1,-0.2
CC(C)NC(=O)Nc1ccc2c(c1)C(=O)N([C@H](C)CO)C[C@H](C)[C@@H](CN(C)C(=O)Nc1cccc3ccccc13)OCCCC[C@@H](C)O2,0.1
COc1ccc(NC(=O)N(C)C[C@H]2Oc3c(cccc3N(C)C)C(=O)N([C@@H](C)CO)C[C@H]2C)cc1,0.1
Cc1noc(C)c1NC(=O)N(C)C[C@@H]1Oc2ccc(NC(=O)Cn3cnnn3)cc2C(=O)N([C@@H](C)CO)C[C@H]1C,-0.5
C[C@H]1CN([C@@H](C)CO)C(=O)c2cc(NC(=O)CCCN(C)C)ccc2O[C@H]1CN(C)S(=O)(=O)c1ccc(Cl)cc1,-0.6
C[C@H](CO)N1C[C@H](C)[C@H](CN(C)Cc2ccncc2)Oc2c(NC(=O)Nc3ccccc3)cccc2C1=O,-0.5
COC(=O)CCCCCCC(=O)N/N=C/c1ccc(I)cc1,0.4
C[C@H](CO)N1C[C@H](C)[C@@H](CN(C)C(=O)Nc2ccc3c(c2)OCO3)OCCCC[C@H](C)Oc2ccc(NC(=O)Cc3ccccc3)cc2C1=O,0.2
Cc1ccc(S(=O)(=O)N(C)C[C@H]2Oc3c(NS(=O)(=O)c4ccc(F)cc4)cccc3C(=O)N([C@H](C)CO)C[C@@H]2C)cc1,-1.9
Cc1noc(C)c1NC(=O)N(C)C[C@H]1Oc2ccc(NS(=O)(=O)c3cn(C)cn3)cc2CC(=O)N([C@@H](C)CO)C[C@@H]1C,-0.8
C[C@@H]1CN([C@H](C)CO)C(=O)Cc2cc(NC(=O)Cn3cnnn3)ccc2O[C@@H]1CN(C)C(=O)Nc1cccc2ccccc12,-0.9
Cc1noc(C)c1NC(=O)N(C)C[C@H]1OCCCC[C@H](C)Oc2ccc(NC(=O)NC(C)C)cc2C(=O)N([C@@H](C)CO)C[C@@H]1C,-1.6
C[C@H]1CCCCO[C@@H](CN(C)CC2CCCCC2)[C@@H](C)CN([C@@H](C)CO)C(=O)c2cc(NS(=O)(=O)c3cn(C)cn3)ccc2O1,-0.1
C[C@H]1CN([C@@H](C)CO)C(=O)Cc2cc(NC(=O)C3CC3)ccc2O[C@@H]1CN(C)S(C)(=O)=O,0.2
Cc1noc(C)c1S(=O)(=O)N(C)C[C@@H]1OCCCC[C@H](C)Oc2ccc(NS(=O)(=O)c3ccccc3)cc2C(=O)N([C@H](C)CO)C[C@H]1C,-0.6
C[C@@H]1CN([C@H](C)CO)C(=O)CCCn2nncc2CO[C@@H]1CN(C)C(=O)c1ccccc1,0.8
C[C@H](CO)N1C[C@H](C)[C@@H](CN(C)S(=O)(=O)c2ccc(-c3ccccc3)cc2)OCc2cnnn2CCCC1=O,0.7
C=CC[C@@]1(C(=O)NCCCOC)N=C(c2ccc(OCCCO)cc2)O[C@@H]1c1ccccc1,0.9
C[C@H](CO)N1C[C@H](C)[C@@H](CN(C)C(=O)c2ccncc2)OCCCC[C@H](C)Oc2ccc(NS(=O)(=O)c3ccccc3)cc2C1=O,0.9
C[C@H]1CN([C@@H](C)CO)C(=O)c2cc(NC(=O)NC3CCCCC3)ccc2O[C@@H]1CN(C)Cc1ccc(-c2ccccc2)cc1,-3.6
CC(C)NC(=O)N(C)C[C@@H]1OCCCC[C@H](C)Oc2ccc(NS(=O)(=O)c3ccc(Cl)cc3)cc2C(=O)N([C@H](C)CO)C[C@@H]1C,0.0
COc1ccc(CN(C)C[C@H]2Oc3ccc(NC(=O)Nc4ccc(C(F)(F)F)cc4)cc3C(=O)N([C@@H](C)CO)C[C@H]2C)cc1,2.7
O=C(NO)c1ccc(C(=O)N/N=C/c2ccc(Br)o2)cc1,0.5
C[C@@H]1CN([C@H](C)CO)C(=O)c2cc(NC(=O)Nc3cccc4ccccc34)ccc2O[C@H]1CN(C)Cc1ccc(-c2ccccc2)cc1,0.4

# Overlap with the part before: 3 entries, followed by the next part.
SMILES,A1 apoptosis 2
COc1ccc(CN(C)C[C@H]2Oc3ccc(NC(=O)Nc4ccc(C(F)(F)F)cc4)cc3C(=O)N([C@@H](C)CO)C[C@H]2C)cc1,2.7
O=C(NO)c1ccc(C(=O)N/N=C/c2ccc(Br)o2)cc1,0.5
C[C@@H]1CN([C@H](C)CO)C(=O)c2cc(NC(=O)Nc3cccc4ccccc34)ccc2O[C@H]1CN(C)Cc1ccc(-c2ccccc2)cc1,0.4
CC(/C=C/C(=O)NO)=C\c1cccc(OCc2ccc(-c3ccncc3)cc2)c1,0.4
C[C@H](CO)N1C[C@H](C)[C@H](CN(C)Cc2ccc(C(=O)O)cc2)Oc2ccc(NC(=O)NC3CCCCC3)cc2C1=O,-0.5
O=S(=O)(N[C@@H]1CCCN(Cc2cccc(OCCO)c2)C1)c1cccc(F)c1,0.8
C[C@@H]1CN([C@@H](C)CO)C(=O)c2cc(NC(=O)Nc3cccc4ccccc34)ccc2O[C@@H](C)CCCCO[C@@H]1CN(C)S(=O)(=O)c1ccc(F)cc1,-0.8
C[C@H]1CCCCO[C@H](CN(C)C(=O)Nc2cccc3ccccc23)[C@@H](C)CN([C@@H](C)CO)C(=O)c2cc(NS(=O)(=O)c3ccc(F)cc3)ccc2O1,0.7
C[C@@H]1CN([C@H](C)CO)C(=O)c2cc(NS(=O)(=O)c3cccs3)ccc2O[C@@H]1CN(C)C(=O)Nc1ccc(C(F)(F)F)cc1,0.7
Cc1ccc(S(=O)(=O)N(C)C[C@@H]2OCCCC[C@@H](C)Oc3ccc(NS(=O)(=O)c4cccs4)cc3C(=O)N([C@@H](C)CO)C[C@H]2C)cc1,0.9
Cc1noc(C)c1S(=O)(=O)Nc1ccc2c(c1)C(=O)N([C@@H](C)CO)C[C@H](C)[C@@H](CN(C)C(=O)Nc1ccc3c(c1)OCO3)OCCCC[C@H](C)O2,1.1
C[C@@H]1CN([C@H](C)CO)C(=O)CCCn2cc(nn2)CO[C@@H]1CN(C)C(=O)c1ccc(N2CCN(C)CC2)cc1,-0.1
C[C@H](CO)N1C[C@H](C)[C@@H](CN(C)C(=O)Nc2ccccc2)Oc2c(NC(=O)c3cnccn3)cccc2C1=O,-0.5
C[C@@H]1CN([C@H](C)CO)C(=O)Cc2cc(NC(=O)Cn3cnnn3)ccc2O[C@@H]1CN(C)S(=O)(=O)c1ccccc1,-0.2
C[C@@H]1CCCCO[C@H](CN(C)S(=O)(=O)c2cn(C)cn2)[C@@H](C)CN([C@H](C)CO)C(=O)c2cc(NC(=O)Nc3ccccc3)ccc2O1,0.6
C[C@@H]1CCCCO[C@H](CN(C)C(=O)Nc2ccc(C(F)(F)F)cc2)[C@H](C)CN([C@H](C)CO)C(=O)c2cc(NS(=O)(=O)c3ccc(Cl)cc3)ccc2O1,-0.5

# 3 compounds already listed, ordered by molar mass, falling.
SMILES,A1 apoptosis 2
C[C@@H]1CCCCO[C@H](CN(C)C(=O)Nc2ccc(C(F)(F)F)cc2)[C@H](C)CN([C@H](C)CO)C(=O)c2cc(NS(=O)(=O)c3ccc(Cl)cc3)ccc2O1,-0.5
C[C@H](CO)N1C[C@H](C)[C@H](CN(C)Cc2ccc(C(=O)O)cc2)Oc2ccc(NC(=O)NC3CCCCC3)cc2C1=O,-0.5
CC(/C=C/C(=O)NO)=C\c1cccc(OCc2ccc(-c3ccncc3)cc2)c1,0.4

# Reprinted at random: 2 records from the list, in no set order.
SMILES,A1 apoptosis 2
C[C@@H]1CN([C@H](C)CO)C(=O)Cc2cc(NC(=O)Cn3cnnn3)ccc2O[C@@H]1CN(C)S(=O)(=O)c1ccccc1,-0.2
Cc1noc(C)c1S(=O)(=O)Nc1ccc2c(c1)C(=O)N([C@@H](C)CO)C[C@H](C)[C@@H](CN(C)C(=O)Nc1ccc3c(c1)OCO3)OCCCC[C@H](C)O2,1.1

# Not all compounds are listed. The share of hits here may be higher or lower than overall.
